KCNQ2 inh: KCNQ2 potassium channel inhibitors, primary screen, cell-based, CHO-K1, FluxOR thallium flux, B-score (AID 2156); Potassium voltage-gated channel subfamily KQT member 2 (Rattus norvegicus), O88943; 20 min; active compounds read low; only compounds with negative scores are shown here; some inactives read as strong as hits; B-score at 10 µM; 1.1% of 310,000 active;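 active = fluorescence ratio B-score at most minus 3 library SDs, with starting brightness B-score within 2 library SDs, cut at about -5.5 in these data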
Target sequence (O88943 whole entry, looked up): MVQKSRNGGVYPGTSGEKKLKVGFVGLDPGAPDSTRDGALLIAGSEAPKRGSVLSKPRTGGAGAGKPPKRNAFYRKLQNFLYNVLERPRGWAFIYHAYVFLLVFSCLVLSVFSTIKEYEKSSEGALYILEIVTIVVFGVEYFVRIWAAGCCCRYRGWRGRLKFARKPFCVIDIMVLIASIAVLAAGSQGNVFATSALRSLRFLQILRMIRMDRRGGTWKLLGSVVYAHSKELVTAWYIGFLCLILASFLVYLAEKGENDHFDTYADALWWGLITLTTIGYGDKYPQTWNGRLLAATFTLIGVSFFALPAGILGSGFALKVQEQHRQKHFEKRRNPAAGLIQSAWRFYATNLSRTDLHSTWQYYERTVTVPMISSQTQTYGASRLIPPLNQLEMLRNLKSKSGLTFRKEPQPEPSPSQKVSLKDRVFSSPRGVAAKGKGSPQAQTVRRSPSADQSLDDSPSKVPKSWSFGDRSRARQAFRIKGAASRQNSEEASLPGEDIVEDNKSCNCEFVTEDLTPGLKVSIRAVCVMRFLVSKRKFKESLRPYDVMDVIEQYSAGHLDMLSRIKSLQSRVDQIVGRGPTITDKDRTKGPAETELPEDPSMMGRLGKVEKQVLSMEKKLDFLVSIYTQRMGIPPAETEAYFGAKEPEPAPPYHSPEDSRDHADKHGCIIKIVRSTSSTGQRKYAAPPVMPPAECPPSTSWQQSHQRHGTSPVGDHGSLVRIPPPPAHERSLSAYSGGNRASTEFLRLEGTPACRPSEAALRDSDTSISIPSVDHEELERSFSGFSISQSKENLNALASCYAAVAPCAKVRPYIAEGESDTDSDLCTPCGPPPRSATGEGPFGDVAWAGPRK
KCNQ2 inh baseline: recorded beside KCNQ2 inh, whose call it bears; B-score; measured here: initial fluorescence intensity artifact check;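 brightness before thallium and not channel activity; 0 = typical well and far values either way flag optical interference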
* = called active by the depositor; i = inactive. An excerpt; count on the stated rates, not on these rows.

The first 6 entries, to show the layout:
| smiles | KCNQ2 inh | KCNQ2 inh baseline |
| --- | --- | --- |
| CC(Sc1nc2sccc2c(=O)n1-c1ccccc1)C(N)=O (configuration not stated) | i | 1.3 |
| Cc1nnc(SC(C)C)n(N)c1=O | i | 1.16 |
| Cn1c(C(=O)N2CCCC(C(=O)NCCc3ccccc3)C2)cc2sccc21 (configuration not stated) | i | 0.04 |
| Cc1ccc(S(=O)(=O)NCc2ccccc2)cc1C(=O)NC1CCC(C)CC1 (configuration not stated) | i | 0.18 |
| CCCN(C(=O)c1ccc2c(SCC(=O)O)c3c(nc2c1)CCC3)c1cccc(C)c1 | i | -0.06 |
| O=c1[nH]nc(-c2ccc(OCc3ccc(Cl)cc3Cl)cc2)o1 | i | -0.44 |

All compounds of this part (from the top)
| smiles | KCNQ2 inh | KCNQ2 inh baseline |
| --- | --- | --- |
| CC(Sc1nc2sccc2c(=O)n1-c1ccccc1)C(N)=O (configuration not stated) | i | 1.3 |
| Cc1nnc(SC(C)C)n(N)c1=O | i | 1.16 |
| Cn1c(C(=O)N2CCCC(C(=O)NCCc3ccccc3)C2)cc2sccc21 (configuration not stated) | i | 0.04 |
| Cc1ccc(S(=O)(=O)NCc2ccccc2)cc1C(=O)NC1CCC(C)CC1 (configuration not stated) | i | 0.18 |
| CCCN(C(=O)c1ccc2c(SCC(=O)O)c3c(nc2c1)CCC3)c1cccc(C)c1 | i | -0.06 |
| O=c1[nH]nc(-c2ccc(OCc3ccc(Cl)cc3Cl)cc2)o1 | i | -0.44 |
| Cc1ccc(CSCC(=O)Nc2ccc(F)cc2)cc1 | i | -0.04 |
| CCn1c(SCc2ccccc2Cl)nc2nc3c(cc2c1=O)CCCC3 | i | -0.05 |
| O=C1Nc2ccccc2/C1=N\N1CCOCC1 | i | 3.09 |
| O=C(NC(CC(=O)N1CCCC(C(F)(F)F)C1)c1ccccc1)c1ccccc1Cl (configuration not stated) | i | -1.29 |
| COc1ccc(Nc2nc(C)cc(C)c2C#N)cc1 | i | -0.94 |
| Cc1ccc(-n2nc3c(c2NC(=O)c2cccs2)CS(=O)(=O)C3)c(C)c1 | i | 1.4 |
| CC(=O)c1ccc(-n2nnnc2SCC(=O)NNC(=O)c2ccco2)cc1 | i | 0.32 |
| COc1ccc(N(C)S(=O)(=O)c2ccc3c(c2)CCN3C(=O)C2CC2)c(OC)c1 | i | 1.09 |
| Cc1ccc(SCc2cc(=O)[nH]c(N3CCN(Cc4ccc5c(c4)OCO5)CC3)n2)cc1 | i | -0.25 |
| Cn1cc(Br)c(C(=O)Nc2nccs2)n1 | i | 2.09 |
| COc1ccc(N(C(C)C(=O)N2CCC(Cc3ccccc3)CC2)S(C)(=O)=O)cc1 (configuration not stated) | i | 0.24 |
| CCn1c(SCC(=O)c2ccccc2)nnc1-c1cc2cc(Br)ccc2o1 | i | 0.58 |
| Cc1ccc2nc(NC(=O)CN3CCOCC3)sc2c1 | i | 1.84 |
| Cc1c(Br)ccc(NC(=O)Cn2nc(-c3cccs3)ccc2=O)c1C | i | 0.03 |

Fetched by structure from the entries so far:
| smiles | KCNQ2 inh | KCNQ2 inh baseline |
| --- | --- | --- |
| O=c1[nH]nc(-c2ccc(OCc3ccc(Cl)cc3Cl)cc2)o1 | i | -0.44 |
| COc1ccc(N(C)S(=O)(=O)c2ccc3c(c2)CCN3C(=O)C2CC2)c(OC)c1 | i | 1.09 |
| CCn1c(SCC(=O)c2ccccc2)nnc1-c1cc2cc(Br)ccc2o1 | i | 0.58 |
| Cc1nnc(SC(C)C)n(N)c1=O | i | 1.16 |
| O=C(NC(CC(=O)N1CCCC(C(F)(F)F)C1)c1ccccc1)c1ccccc1Cl (configuration not stated) | i | -1.29 |
| CC(=O)c1ccc(-n2nnnc2SCC(=O)NNC(=O)c2ccco2)cc1 | i | 0.32 |

Next part:
| smiles | KCNQ2 inh | KCNQ2 inh baseline |
| --- | --- | --- |
| COc1ccc(CC(=O)Nc2c(C(N)=O)oc3ccccc23)cc1 | i | -1.47 |
| Cc1cc2ccccn2c1C(=O)c1ccc(F)cc1 | i | -1.7 |
| Cc1cc(C)c(NC(=O)c2cc3c(nc4sccn43)s2)c(C)c1 | i | 0.96 |
| CCn1c(C)nc2cc(C(=O)N/N=C/c3ccc(N4CCOCC4)cc3)ccc21 | i | -0.06 |
| Cc1c(NC(=O)N2CCCCCC2)c(=O)n(-c2ccccc2)n1C | i | 0.84 |
| CC(C)c1ccc(CNc2cc(N3CCCC3)ccc2[N+](=O)[O-])cc1 | i | 0.29 |
| CCC(=O)Nc1cccc(Oc2nc(C)cc(C)c2C#N)c1 | i | -0.23 |
| COc1ccc(N2CC(C)Cn3c2nc2c3c(=O)[nH]c(=O)n2C)cc1 (configuration not stated) | i | -2.14 |
| O=C1C(c2ccccc2)=[N+]([O-])c2ccccc21 | i | -0.08 |
| O=C(NC1CCc2ccccc21)c1cc(COc2ccc(F)cc2F)on1 (configuration not stated) | i | 0.06 |
| O=C(O)c1cccnc1SC1CC(=O)N(c2cccc(C(F)(F)F)c2)C1=O (configuration not stated) | i | -2.77 |
| O=C(NN1C(=O)/C(=C/c2cccs2)SC1=S)c1ccncc1 | i | 0.5 |
| COc1ccc(-c2csc(NC(=O)c3ccc(OCC(=O)N4CCOCC4)c(OC)c3)n2)cc1OC | i | 0.08 |
| CC(C)C[C@H](NC(=O)NC1CCCc2ccccc21)C(=O)O (some centres not stated) | i | -0.61 |
| CCOC(=O)C1CCN(S(=O)(=O)c2ccc3c(c2)CC(=O)N3C)CC1 | i | 0.35 |
| N#C/C(=C\c1ccc(Br)s1)C(=O)N1CCN(c2ccccc2)CC1 | i | 2.31 |
| CC(c1ccccc1)N1C(=O)C2C3CCC(C3)C2C1=O (configuration not stated) | i | -0.37 |
| COc1cc2c(cc1OC)C(c1ccc(-c3ccc(Cl)cc3Cl)o1)=NCC2 | i | 0.85 |
| C=C1CCC2[C@](C)(CO)[C@H](O)CC[C@@]2(C)[C@@H]1/C=C/C1=CCOC1=O (some centres not stated) | i | -0.05 |
| Brc1cnc(N2CCOCC2)nc1N1CCCCC1 | i | 4.09 |
| O=C(CSc1nnc(-c2ccncc2)n1CCc1ccccc1)NCc1ccccc1 | i | 0.36 |
| O=C(Nc1ccc(N2CCN(Cc3ccccc3F)CC2)cc1)c1ccccc1[N+](=O)[O-] | i | 1.04 |
| CCC(c1nnnn1CCc1ccccc1)N(Cc1ccco1)Cc1cc2cc(C)cc(C)c2[nH]c1=O (configuration not stated) | i | 4.82 |
| CC(C)c1ccc(C2CC(=O)N3CN(Cc4ccco4)CSC3=C2C#N)cc1 (configuration not stated) | i | 1.66 |
| O=C(O)Cc1ccc(NC(=O)C(c2ccccc2)c2ccccc2)cc1 | i | 0.36 |
| COc1ccc(-c2n[nH]c(C)c2-c2cc(OC)ccc2O)cc1 | i | 0.19 |
| Cc1c(CN(C)Cc2cn(C)nc2-c2ccccc2F)[nH]c2ccccc12 | i | 0.09 |
| CCNC(=O)COC(=O)c1ccc(NS(=O)(=O)c2ccc3c(c2)OCCO3)cc1 | i | -0.12 |
| CC(c1ccccc1)N1CNc2c(c(=O)n(C)c(=O)n2C)C1 (configuration not stated) | i | -0.51 |
| COc1ccc(Cl)cc1NC(=O)NC(C)C | i | 2.26 |
| COc1ccc(-c2noc(-c3ccc(Br)o3)n2)cc1OC | i | -2.61 |
| CCSc1ncc(Cl)c(C(=O)N(Cc2ccc(N(C)C)cc2)C2CCS(=O)(=O)C2)n1 (configuration not stated) | i | -0.5 |
| O=C(COc1ccccc1-c1ccccc1)NN=C1CCCC1 | i | -0.05 |
| COc1cc(C)c(NC(=S)NCCCN2CCOCC2)cc1OC | i | 1.07 |
| CCC(C)NC(=O)COC(=O)c1ccccc1OCC(=O)Nc1ccc(Br)cc1 (configuration not stated) | i | 1.38 |
| COc1cc(/C=C(/C#N)C(=O)NC(C)c2ccccc2)cc(OC)c1O (configuration not stated) | i | 0.36 |
| COc1ccc(NCC(=O)n2c(C)c(C)c3ccccc32)cc1 | i | 1.04 |
| CCN(CC)C(=S)SC1CCCCN(C(=O)c2ccccc2)C1=O (configuration not stated) | i | -1.59 |
| Cc1ccc(C(CC(=O)O)Nc2nc(N3CCCCC3)nc(N3CCCCC3)n2)cc1 (configuration not stated) | i | 0.53 |
| CN(C)/C=C1\NC(=S)N(c2ccccc2)C1=O | i | 0.21 |

Following part.
Below each compound: KCNQ2 inh	KCNQ2 inh baseline
CCOC(=O)c1ccc(NC(=S)NNC(=O)COC)cc1
  i	-0.92
COc1ccc(CN2CCCCCC2)c(C)c1C
  i	-0.38
CCCCOc1ccc(S(=O)(=O)N2CCCCC2)cc1
  i	-0.06
Cc1cc(/C=N/NC(=O)c2cccc([N+](=O)[O-])c2)c(C)n1-c1ccccc1
  i	0.55
c1ccc(CSc2nnc(-c3ccco3)c(-c3ccco3)n2)cc1
  i	-2.41
Cc1cc(C)cc(NC(=O)Cn2c(=O)oc3cc(S(=O)(=O)N4CCC(C)CC4)ccc32)c1
  i	0.39
COc1cc(CNc2ccc(C(=O)O)cc2)cc(Br)c1OCC(=O)NC(C)(C)C
  i	-0.08
COc1ccc(C2=NOC(C(=O)NCCCn3ccnc3)C2)cc1 (configuration not stated)
  i	0.81
CCOC(=O)C1(CC2CCCCO2)CCN(Cc2nc3ccccc3[nH]2)CC1 (configuration not stated)
  i	-2.78
CCS(=O)(=O)NCC(c1cccnc1)N1CCN(c2ccccc2OC)CC1 (configuration not stated)
  i	-0.94
O=C(O)CCN1c2cccc3cccc(c23)S1(=O)=O
  i	0.8
CN1CCN(c2nc(-c3ccccc3)nc(-c3ccccc3)c2C#N)CC1
  i	-0.75
O=C(CSc1nnc(-c2cc3ccccc3cc2O)n1Cc1ccco1)N1CCc2ccccc2C1
  i	-0.86
FC(F)(F)c1nc(-c2ccncc2)ncc1-c1nnnn1-c1ccccc1
  i	-0.51
Cc1ccc(NC(=O)c2ccccc2OCC(=O)c2ccccc2)cc1
  i	0.45
Cc1cc2oc(C(=O)NCCc3ccc(S(N)(=O)=O)cc3)cc(=O)c2cc1C
  i	0.7
Cn1c(-c2ccccc2)c(C(=O)CCl)c2ccccc21
  i	-1.46
Cc1csc2c(NCCCN3CCOCC3)ncnc12
  i	-0.28
CC(C)CC(NC(=O)C1CCC(C)CC1)C(=O)Nc1ccccc1F (configuration not stated)
  i	0.85
CCc1ccc(NC(=O)Nc2ccsc2C(=O)OC)cc1
  i	-0.54
CN(C)S(=O)(=O)c1ccc(C(=O)NCCN=C2NS(=O)(=O)c3ccccc32)cc1
  i	0.01
COc1ccc(NC(=O)C2CCCN2C(=O)Nc2ccc(OC)cc2)cc1 (configuration not stated)
  i	-0.18
Cc1ccc(CNC(=O)CCC(=O)Nc2nnc(C3CCCCC3)s2)cc1
  i	-0.49
Cc1ccc(C)c(NC(=O)CSc2sc3c(O)cc(=O)[nH]c3c2C#N)c1
  i	-0.01
Cc1ccc(NS(=O)(=O)c2ccc(CCC(=O)NCCO)cc2)cc1
  i	-0.49
COc1ccc(/C=C\C(=O)CC(O)(c2ccccc2)C(F)(F)F)cc1 (configuration not stated)
  i	-0.67
CC1CN(c2nc3c(c(=O)[nH]c(=O)n3C)n2Cc2ccccc2F)CC(C)O1 (configuration not stated)
  i	-0.61
Cc1ccc(Cn2nnnc2CN2CCC(NC(=O)C(C)(C)C)CC2)cc1
  i	1.62
CC(=O)c1cc(OC(=O)N2CCOCC2)ccc1OC(=O)N1CCOCC1
  i	-0.03
Cc1ccc(-c2nc(C#N)c(NCc3cccc4c3OCO4)o2)cc1
  i	0.59
COc1ccc(C(=O)c2c[nH]c3ccccc23)cc1
  i	1.06
COc1ccccc1C(CC(=O)N1CCCC1)c1ccc2c(c1)OCO2 (configuration not stated)
  i	2.19
Cc1cccc(CCNC(=O)CCS(=O)(=O)c2cc3c(cc2C)NC(=O)CO3)c1
  i	-0.44
CCOc1ccccc1N(C)C(=O)c1ccc2c(=O)n3c(nc2c1)CCCCC3
  i	1.62
CC(=O)Nc1ccc(S(=O)(=O)N2CCN(CCC#N)CC2)cc1
  i	0.01
O=C(CSc1nnc(-c2ccccc2F)o1)NC1CCCCC1
  i	-0.14
CC(C)c1cc(Nc2cccc(O)c2)cc(C(C)C)c1O
  i	-0.07
Cc1ccc(Cn2nc(C)c(C(=O)NCC(c3cccs3)N3CCOCC3)c2Cl)cc1 (configuration not stated)
  i	-3.59
CC(C)Nc1nc(Oc2ccc(Cl)cc2)cc(C(F)(F)F)n1
  i	0.99
CCn1c(SCC(=O)NNC(=O)c2ccc(C)cc2)nnc1-c1ccncc1
  i	1.11
O=S(=O)(NCCc1ccccc1)c1ccc(Br)s1
  i	-0.97
CCCCNC(=O)/C=C1\Sc2ccccc2NC1=O
  i	-0.16
CN(CC(=O)Nc1cccc(F)c1)C(=O)CNS(=O)(=O)c1ccc(N(C)C)c([N+](=O)[O-])c1
  i	0.43
COc1ccccc1NC(=O)C1=C(C)Nc2nc(-c3cccs3)nn2C1c1cccnc1 (configuration not stated)
  i	-0.35
COCCn1c(SCC(=O)Nc2sc(C)c(C)c2C#N)nnc1-c1ccc(OC)cc1
  i	-1.52
COc1ccc(/C=N/N=C2/NC(=O)C(CC(=O)NC(C)C)S2)cc1 (configuration not stated)
  i	2.29
COC(=O)c1[nH]c2ccccc2c1Sc1ccccc1
  i	0.27
CC1C/C(=N/N=C2/NC(=O)CS2)CC(C)(C)C1 (configuration not stated)
  i	-0.87
CCOc1cc(/C=C/C(=O)c2ccc3c(c2)OCCO3)ccc1OCC(=O)N(C)C
  i	0.96
COC(=O)c1sc(C(F)(F)F)c(-c2ccccc2)c1S(=O)(=O)NC(C)(C)C
  i	-0.42

Other structures
Below each compound: KCNQ2 inh	KCNQ2 inh baseline
COc1cccc(CN2CC(C(=O)NCCc3ccc(C)o3)CCC2=O)c1 (configuration not stated)
  i	0.01
CCCCS/C(N)=N/N=C/c1ccccc1O
  i	-1.11
O=C(NC1CCCC1)C1CCCN(C(=O)Nc2ccccc2)C1 (configuration not stated)
  i	1.82
COc1cc(CSc2ncn[nH]2)c(OC)cc1CSc1ncn[nH]1
  i	1.04
